# AID504770: growth inhibitors of E. coli YBA685 in a screen for V. cholerae RctB (chromosome II replication) inhibitors | E. coli YBA685 rctB-dependent plasmid, OD600 growth, 3 h; active compounds read low | z-score (test concentration not listed) | hit rate 0.27% among 130,000;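 active means z-score under -2 on both plates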;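 further: wells of about 30 µL received 100 nL stock; score is relative to mean and SD of the test wells; the first replicate is given; strong numbers were not always called active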
# CapD inh: inhibitors of Bacillus anthracis CapD enzyme; AID 492967; hit rate 0.23% among 140,000; purified CapD enzyme, fluorescence intensity read-out; active compounds read low; some hits fall short of the stated cut; z-score (test concentration not listed);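 active means z-score under -4 in either of two replicates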;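 further: stock transfer was 100 nL into about 40 µL; score is relative to mean and spread of the plate; one replicate is shown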
# * hit, by the source's call; x = no result given; & = joins results of further samples. An excerpt; count on the stated rates, not on these rows.
# Values run as follows: AID504770, CapD inh
> COc1ccc(CN(CCN(C)C)c2ncccn2)cc1
 : -0.05, 0.1
> C/S(=N\S(=O)(=O)c1cccc2nsnc12)c1ncc(Cl)cc1C(F)(F)F (centres undefined)
 : -0.25, 0.955
> COc1ccc(N2C(=O)Cc3ccc(OC)cc3C2=O)cc1
 : 0.55, 1.19
> CCc1ccc(NC(=O)/C(C#N)=C/c2ccc(-c3ccc(S(=O)(=O)N4CCOCC4)cc3)o2)cc1
 : -0.25, x
> Cc1ccc(Cl)cc1NC(=O)c1ccc(N2CC3CC(C2)c2cccc(=O)n2C3)c(NC(=O)c2ccc(F)cc2)c1 (centres undefined)
 : x, -0.08
> COC(=O)c1ccc(S(=O)(=O)NCCNc2cccc(C(F)(F)F)n2)n1C
 : 1.35, 7.18
> CSC(=S)Nc1ccc(-c2nc3ccc(C)cc3s2)cc1
 : 0.55, 52.4
> COc1ccc(Br)cc1C1C(N2C(=O)c3ccc([N+](=O)[O-])cc3C2=O)C(=O)N1c1ccc(Cl)c(Cl)c1 (centres undefined)
 : x, -0.065
> CCCCn1c(C(C)NC(=O)c2ccc(OC)c(OC)c2)nc2ccccc21 (centres undefined)
 : -0.05, 0.055
> CCN(CC)S(=O)(=O)c1ccc(C(=O)Nc2ccccc2-c2nc3ccccc3s2)cc1
 : x, 0.36
> CN(C(=O)CSCc1ccco1)c1ccccc1
 : 0.15, -0.74
> O=C(Cc1n[nH]c(=O)c2ccccc12)NC1=NCCS1
 : 1.3, x
> CCCNC(=O)c1oc2ccc3c(c2c1C)C(=O)CC(C)(C)O3
 : 0.2, 0.105
> N=C(N)SCc1cccc(Cl)c1
 : x, -0.07
> Cc1ccccc1OC(C)C(=O)NCc1ccccc1 (centres undefined)
 : -0.25, -0.035
> O=C(O)CCSc1cccc2ccccc12
 : -1.15, 2.37
> O=C(c1cnn2c(C(F)(F)F)cc(-c3ccccc3)nc12)N1CCOCC1
 : 1.55, 3.84
> CCOC(=O)N1CCN(Cn2nc(-c3ccc(Cl)cc3)n(Cc3ccccc3)c2=S)CC1
 : -0.95, 1.55
> CC1(C)CC(NCc2cn(CCC#N)nc2-c2ccccc2)CC(C)(C)N1
 : 0.65, x
> CC1=NN(c2ccc(S(N)(=O)=O)cc2)C(=O)/C1=C\c1ccc(-c2ccc([N+](=O)[O-])cc2)o1
 : x, -0.33

# 2 compounds drawn at random from the list so far, as already listed:
# Values run as follows: AID504770, CapD inh
> O=C(O)CCSc1cccc2ccccc12
 : -1.15, 2.37
> N=C(N)SCc1cccc(Cl)c1
 : x, -0.07

# Next part.
# Values run as follows: AID504770, CapD inh
> CN(C)C(CNC(=O)CN1C(=O)c2ccccc2C1=O)c1ccccc1 (centres undefined)
 : -0.55, x
> CCC(=O)N1CCN(c2nnc(-c3ccccc3)c3ccccc23)CC1
 : 1, 0.97
> O=C(O)c1cc(O)ccc1O
 : x, -0.67
> CSC(SC)=C(C#N)c1ccccn1
 : -4, -2.15
> O=C1CC(c2ccc(Cl)cc2)CC(=O)N1
 : x, -0.05
> O=c1c2ccccc2c(/C=N/c2n[nH]c(CCCO)n2)c(O)n1-c1ccccc1Cl
 : -0.35, x
> CN(C)[C@@H]1C(=O)C(C(N)=O)=C(O)[C@@]2(O)C(=O)C3=C(O)c4c(O)cccc4[C@@](C)(O)[C@H]3C[C@@H]12
 : -3.2*, 0.03&-0.635
> CC(=O)Nc1nc(-c2cc(Cl)sc2Cl)cs1
 : 1.85, -0.255
> CC(C)(C)c1ccc(-c2noc(CSc3n[nH]c(=O)n3-c3cccnc3)n2)cc1
 : -0.25, -0.165
> CCOc1cc(/C=C2\SC(N)=NC2=O)ccc1OCc1ccc(C)cc1
 : x, 1.56
> CCOC(=O)c1ccc(NC(=O)C2=CC(=O)N3CCN=C3S2)cc1
 : -0.65, x
> Cc1cccc(CN2CCC(CNC(=O)COc3cc(=O)n(C)c4ccccc34)CC2)c1
 : -0.9, -0.155
> Cc1nn(-c2nc(-c3ccco3)cc(C(F)(F)F)n2)c(C)c1Br
 : 2, 4.65
> O=C(CSc1nc2ccccc2[nH]1)CSc1nc2ccccc2[nH]1
 : 0.85, x
> CCC(C)N1CCN(C(=O)C(c2ccccc2)c2ccccc2)CC1 (centres undefined)
 : -0.45, 0.195
> O=C(NCCC1=CCCCC1)c1ccc2c(c1)OCO2
 : -0.7, -0.815
> Cc1cc(Cl)ccc1OCC(=O)Nc1sc2c(c1C#N)CCC2
 : 0.25, 0.515
> CC(=O)Nc1ccc(NC(=O)CC(NC(C)=O)c2ccccc2)cc1 (centres undefined)
 : -0.45, x
> COc1ccc(/C=N/N2C(=O)C3C4C=CC(C4)C3C2=O)cc1Br (centres undefined)
 : 0.5, 0.095
> CCN(C(=O)c1cc2c(=O)oc3ccccc3c2s1)c1cc(OC)ccc1OC
 : 1.15, -0.29
> O=C(CN1CCc2ccccc21)NC(=O)Nc1ccc2c(c1)OCCO2
 : -0.6, x
> O=c1cc(-c2cccc(O)c2)oc2ccc(O)cc12
 : 0.75, 3.36
> CC(=O)Nc1sc2c(c1-c1nsc(=O)o1)CCCC2
 : -0.8, 1.54
> CCOC(=O)c1ccccc1NC(=O)CSCc1ccccc1
 : 1.15, 1.54
> Cc1ccc(SCC(=O)Nc2cc(C)on2)cc1
 : 0.15, -0.755
> CN1CCN(C(=S)c2ccc(F)cc2)CC1
 : 0.2, -0.185
> Nc1cc(-c2nn[nH]n2)ccc1F
 : 0.3, 0.7
> COc1cc(C(=O)OC(Cc2ccccc2)C(F)(F)F)cc(OC)c1OC (centres undefined)
 : -0.75, 0.185
> CS(=O)(=O)N1CCN(CCCc2ccccc2)CC1
 : -0.25, -0.395
> Cc1ccc(NC(=O)c2cc(C(C)C)on2)cc1
 : -0.3, 0.035
> COc1cccc(NC(=O)CSc2c3c(nc4ccccc24)CCC3)c1
 : -0.75, -0.275
> O=C(/C=C/c1ccc2c(c1)OCO2)OCC(=O)N1CCOCC1
 : -0.65, x
> CCS(=O)(=O)c1ccc(I)s1
 : -1.2, 0.19
> NC(=S)NN=C1C2CC3CC(C2)CC1C3
 : -0.85, x
> COC(=O)c1sccc1Oc1ccc(C(F)(F)F)cc1NC(=O)c1ccccc1OC
 : -0.55, 0.01
> Cc1cc(=O)oc2cc(NC(=O)c3cccc(S(=O)(=O)N4CCCC4)c3)ccc12
 : 0.35, x
> CC1=N/C(=C/c2ccc(C)cc2)C(=O)O1
 : 0, -0.4
> COc1ccc(N2CCN(C(=O)CSc3nc4[nH]ncc4c(=O)n3-c3ccc(Cl)cc3)CC2)cc1
 : x, 0.015
> CCOc1ccc(-c2nc3ncccn3c2NCc2ccccc2OC)cc1OC
 : 0.3, -0.375
> CCOC(=O)c1cc(S(=O)(=O)N2CCN(C(=O)OCC)CC2)cn1C
 : -0.4, -0.57
> CN(C1CCCCC1)S(=O)(=O)c1ccccc1NC(=O)COc1ccccc1C#N
 : 0.25, x
> Oc1ccc(O)c(Sc2nnnn2-c2ccccc2)c1
 : 0.15, 0.445
> Cc1n[nH]c(=O)c2c1nnn2Cc1ccc(F)cc1
 : -0.9, 1.67
> O=C(CSc1ncccc1C(=O)NCc1ccccc1Cl)Nc1ccc(Br)cc1
 : x, 0.02
> Cc1n[nH]c(=S)n(/N=C/c2cccs2)c1=O
 : -0.1, -1.52
> O=C(CN1CCCC1c1ccc2c(c1)OCCCO2)Nc1ccc(S(=O)(=O)N2CCCCC2)cc1 (centres undefined)
 : 0.05, x
> CCCN1CCC(N(C(=O)NS(=O)(=O)c2ccc(C)cc2)C2CC2)CC1
 : x, -0.445
> Cc1ccc(C)c(NC(=O)CN(C)C(=O)COc2ccccc2C#N)c1
 : -3.5*, x
> CC1(C)Nc2ccccc2-c2c1ssc2=Nc1ccccc1
 : x, -0.345
> Cn1c2c(c3cc(C4CCCCC4)ccc31)CCCCC2=O
 : 1.45, 2.1

# The listing continues.
structure	AID504770	CapD inh
O=S(=O)(c1cccc(C(F)(F)F)c1)N1CCN(c2ncccn2)CC1	-0.1	0.36
Cc1ccc(NC(=O)c2nc[nH]c2C(=O)N2CCCCC2)c(C(=O)c2ccccc2)c1	0.4&-0.45	3.62
CS(=O)(=O)N(Cc1ccccc1)c1ccc(C(=O)NCCSc2ccccn2)cc1	1.75	1.58
O=C(Cn1nc(-c2ccco2)ccc1=O)Nc1cccc2ccccc12	0.75	x
O=C(CC1OC(=O)c2ccccc21)c1ccccn1 (centres undefined)	0.1	-1.16
CSc1nc2c(cnn2-c2ccc(C)cc2)c(=O)[nH]1	0.15	0.05
N#C/C(C(=O)N1CCCC1)=c1/s/c(=C\c2ccc(-c3ccc(S(N)(=O)=O)cc3)o2)c(=O)n1-c1ccccc1	0.65	x
NC1=CC(=O)CCC1	1.3	x
CCc1ccc(C2=NN(c3ccccc3)C3(SC(C(C)=O)=NN3c3ccc(Cl)cc3)c3ccccc32)cc1 (centres undefined)	x	8.23
Cn1c(C(C#N)C(=O)c2cncc(Br)c2)nc2ccccc21 (centres undefined)	0.25	0.12
Oc1cccc(CC(F)(F)F)c1	-1.35	0.27
O=S(=O)(c1ccc(F)c(F)c1)N1CCN(c2nc(-c3ccccc3)ns2)CC1	x	0.56
COc1ccccc1NC(=O)CSC1=NC(=O)C(Cc2ccccc2)C(=O)N1 (centres undefined)	-0.7	-0.015
Cc1cc(=O)[nH]c(SCC(=O)N2CCCc3ccccc32)n1	-0.1	-0.11
CCC(=O)N1CCc2cc(S(=O)(=O)N(C)CCC#N)ccc21	1.4	-0.525
COc1cc2c(cc1OC)C(c1ccccc1)N(C(=O)S(C)(=O)=O)CC2 (centres undefined)	0	15.8
Cc1ccc2c(c1)c1nnc(SCC(=O)N3CCCCC3C)nc1n2C (centres undefined)	-0.85	x
CCCc1[nH]n(-c2ccc(F)cc2)c(=O)c1C=NCc1ccc2c(c1)OCO2	x	-0.215
CCN(CC)C(=O)C1CCCN1S(=O)(=O)c1cccc2nsnc12 (centres undefined)	0.6	x
Cc1ccc(S(=O)(=O)c2ccc(Cl)cc2)cc1S(=O)(=O)N1CCCC1	1.85	-1.05
CCOC(=O)c1c(OCC)[nH]c2ccc(O)cc12	-0.05	0.325
COC(=O)C1=C(C(=O)OC)SC(=C2C(=S)C(C)(C)N(C(=O)c3cccc(OC)c3)c3c(OC)cccc32)S1	x	0.83
O=C(c1cn(Cc2ccccc2Cl)nc1-c1ccccc1)N1CCN(C2CCS(=O)(=O)C2)CC1 (centres undefined)	0.05	x
CCOc1ccc(CN(C)CC(=O)NC2CC2)cc1OC	-0.1	x
Cc1ccccc1NCN1C(=O)C2=C(CCCC2)C1=O	-0.85	-0.01
Cc1ccccc1-n1c(SCC(=O)NCc2ccccc2)nc2n[nH]c(C)c2c1=N	-0.4	13.3
O=C(COc1ccccc1)Nc1ccc(C(O)(C(F)(F)F)C(F)(F)F)cc1	0.6	0.375
O=C(Nc1nc(-c2ccccc2)cs1)c1ccc(S(=O)(=O)N2CCCCC2)cc1	0	-0.36
COc1ccc(N2CC(C(=O)Nc3ccccc3)CC2=O)cc1 (centres undefined)	-0.35	0.515
C[C@@H](N)C(=O)OCc1ccccc1	x	-0.69
O=S(=O)(Nc1ccc(Oc2ncccn2)c(Cl)c1)c1ccc(F)cc1	x	0.065
COc1ccc(C(=O)Nc2ccc(NC(=O)c3ccco3)c(Cl)c2)cc1Br	0.1	11.6
O=C(O)C1C2C=CC(C2)C1C(=O)Nc1ccccc1O (centres undefined)	-0.35	0.21
CC(C)C(NC(=O)c1ccccc1)C(=O)O (centres undefined)	-0.65	-0.14
CC1CCCC(NC(=O)CCCn2c3ccccc3c3cn[nH]c(=O)c32)C1C (centres undefined)	-1.1	-0.135
Cc1cc(Nc2ccc(C)c(F)c2)c2ccccc2n1	0.35	0.15
O=C(OCC(=O)N1CCCCC1)C(c1ccccc1)c1ccccc1	0.15	-0.89
O=C(Nc1nnc(-c2ccc(Cl)cc2Cl)s1)c1ccc(S(=O)(=O)N2CCOCC2)cc1	x	1.58
O=C(c1c(Cl)cccc1Cl)n1nnc2ccccc21	0.1	0.425
O=C(Oc1ccc(-c2noc(-c3ccc(OC(=O)c4ccncc4)cc3)n2)cc1)c1ccncc1	x	0.2
Cn1[nH]c(C(F)(F)F)cc1=O	-0.6	-0.03
CCOC(=O)C1C(C(=O)Nc2cccc(C(F)(F)F)c2)C1C(=O)OCC (centres undefined)	x	-0.445
O=S(=O)(Nc1[nH]ncc1Br)c1ccc(Cl)s1	1.7	-0.295
O=C(NC1CC(O)c2cc3c(cc21)OCO3)C(F)(F)F (centres undefined)	-0.35	-0.11
CCN(CC)CCNC(=O)c1sc2ncnc(N3CCCCC3C)c2c1C (centres undefined)	x	0.265
CCOC(=O)CC(N)=S	-1.95	x
COc1ccc(OCCSc2nc3ccccc3o2)cc1	2.3	-0.225
COc1cc(OC)c(C(=O)N2CCCC2)cc1OC	-0.75	0.095
CN(CC(=O)Nc1ccc(Cl)c(Cl)c1)CC(=O)N1CCNC1=O	0.3	x
Cc1cc(=O)oc2c1c(-c1ccccc1)nn2-c1ccc(C(=O)O)cc1	-0.45	-0.645
CCCCNC(=O)c1ccc2c(=O)n(Cc3ccco3)c(=S)[nH]c2c1	0.8	1.77
COC(=O)/C=C1\SC(=Nc2cccc(SC)c2)N(c2cccc(SC)c2)C1=O	1.2	-0.255

# Full records, quoted from the list. Screens in order: AID504770	CapD inh
# O=C(OCC(=O)N1CCCCC1)C(c1ccccc1)c1ccccc1 is listed with 0.15	-0.89
# O=C(c1c(Cl)cccc1Cl)n1nnc2ccccc21 is listed with 0.1	0.425
# O=S(=O)(Nc1ccc(Oc2ncccn2)c(Cl)c1)c1ccc(F)cc1 is listed with x	0.065
# O=C(NC1CC(O)c2cc3c(cc21)OCO3)C(F)(F)F (centres undefined) is listed with -0.35	-0.11
# COc1ccc(C(=O)Nc2ccc(NC(=O)c3ccco3)c(Cl)c2)cc1Br is listed with 0.1	11.6
